# KAT2A inh: blocks human GCN5L2 histone acetyltransferase | Potency, µM (top dose mostly 58.9 µM), without a hit: top-dose activity change, negative = inhibition, most hits filed as inhibitors | GCN5L2 HAT assay, ThioGlo1 CoA-SH fluorescence | Q92830 | 0.21% of 390,000 active; active = well fitted inhibition curve with a large enough effect; inconclusive = small, poorly fitted or top-dose-only effect, or another doubt; inactive = no such curve, though single readings can be large or run the other way
# Target sequence (Q92830 whole entry, looked up): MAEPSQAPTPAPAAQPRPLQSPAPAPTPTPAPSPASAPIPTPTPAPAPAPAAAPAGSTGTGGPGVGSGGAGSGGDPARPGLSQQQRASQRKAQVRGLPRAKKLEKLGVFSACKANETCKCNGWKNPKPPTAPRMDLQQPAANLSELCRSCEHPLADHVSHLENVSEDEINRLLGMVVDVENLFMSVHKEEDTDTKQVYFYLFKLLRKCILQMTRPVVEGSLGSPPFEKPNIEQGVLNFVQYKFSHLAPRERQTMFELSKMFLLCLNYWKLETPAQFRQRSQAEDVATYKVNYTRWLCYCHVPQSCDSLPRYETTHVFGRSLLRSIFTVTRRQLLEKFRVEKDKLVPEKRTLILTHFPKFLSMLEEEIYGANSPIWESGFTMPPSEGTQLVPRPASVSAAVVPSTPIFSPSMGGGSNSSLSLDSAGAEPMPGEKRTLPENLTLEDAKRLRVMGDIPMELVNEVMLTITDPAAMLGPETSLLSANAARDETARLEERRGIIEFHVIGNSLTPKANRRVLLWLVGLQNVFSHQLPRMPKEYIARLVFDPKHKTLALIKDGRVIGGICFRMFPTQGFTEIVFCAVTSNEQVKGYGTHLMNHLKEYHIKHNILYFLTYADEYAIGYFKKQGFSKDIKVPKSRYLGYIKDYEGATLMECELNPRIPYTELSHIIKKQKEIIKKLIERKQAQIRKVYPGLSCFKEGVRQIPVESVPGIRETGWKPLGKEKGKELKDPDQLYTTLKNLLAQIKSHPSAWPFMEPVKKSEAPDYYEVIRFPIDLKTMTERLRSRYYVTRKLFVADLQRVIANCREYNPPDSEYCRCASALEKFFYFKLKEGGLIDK
#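 GCN5L2 (20 nM) in 50mM HEPES pH 7.5, 0.1mM EDTA, 0.01% Tween-20 preincubated 15 min with compounds at room temperature. Reaction started with H3(1-25) 75uM, acetyl-CoA 70uM, ThioGlo1 50uM; CoA-thiol fluorescence (Ex340/Em540) read at 0 and 20 min.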
# Starred values were filed as active, the others as inactive; u = inconclusive; & = joins results of further samples. % is scaled to controls: 0 for no effect and ±100 for the full control effect; potency is read from the fitted curve at half-maximal effect. Only part of the results is shown; most or all hits stand in other tables.
item	KAT2A inh	Compound
1	-2%	O=C(O)/C=C\C(=O)Nc1ccccc1C(=O)NCc1ccccc1
2	-11%	CCCCNCc1cc(Br)c(OCC(=O)N2CCOCC2)c(OC)c1
3	-7%	O=C(CCS(=O)(=O)c1ccc(Br)cc1)N1CCCCCC1
4	-2%	CC(OC(=O)Cn1[nH]c(=O)c2ccccc2c1=O)C(=O)c1ccccc1 (configuration not stated)
5	-3%	COc1ccc(C(=O)/C=C/c2ccc(C)cc2)c(OC(=O)c2ccc([N+](=O)[O-])cc2)c1
6	-5%	Fc1ccc(COc2ccc(-c3nnco3)cc2)c(Cl)c1
7	-6%	COc1ccc([N+](=O)[O-])cc1NCc1cccc([N+](=O)[O-])c1
8	3%	CC(C)(C)c1ccc(C(=O)Nc2ccc(OCc3cc(=O)n4ccsc4n3)cc2)cc1
9	-4%	NNC(=O)c1nn(-c2ccc(Cl)cc2)ccc1=O
10	-2%	CCOc1ccc(-n2c(=S)sc3c(=O)[nH]c(SCC(=O)NC(C)CC)nc32)cc1 (configuration not stated)
11	-2%	CCOc1ccccc1C(=O)Nc1nccs1
12	-7%	O=C(N/N=C/c1ccco1)c1cc(-c2cccc3ccccc23)n[nH]1
13	-2%	C/C(=N\NC(=O)Cn1nc(C)c([N+](=O)[O-])c1C)c1ccc(Cl)s1
14	-7%	O=S(=O)(NC1CCCCC1N1CCN(c2ccccc2F)CC1)c1ccccc1 (configuration not stated)
15	u	CC(=O)Nc1nc2n(n1)C(c1ccccc1)C=C(c1ccccc1)N2 (configuration not stated)
16	-1%	O=C(CCc1nc2ccccc2c(=O)[nH]1)NCc1ccccn1
17	-3%	O=C(CCNS(=O)(=O)c1ccc(Br)s1)Nc1ccc(Cl)cc1
18	-2%	O=C(COC(=O)CSc1ccccc1)NNC(=O)c1ccc([N+](=O)[O-])cc1
19	-5%	COc1ccc2[nH]cc(C(=O)CN3CCN(C(=O)c4ccco4)CC3)c2c1
20	-19%	COc1cc(OC)cc(C(=O)OCCCOC(=O)c2cc(OC)cc(OC)c2)c1

# Remaining list, next part:
item	KAT2A inh	Compound
21	-3%	COc1ccc2c(c1)CC(C(=O)NCCCN1CCN(c3ccccc3F)CC1)CO2 (configuration not stated)
22	-7%	COc1ccc(-n2cc(CN(C)Cc3n[nH]c(=O)[nH]3)c(-c3cccc(F)c3)n2)cc1
23	-7%	O=C(CSc1nnc(-c2ccccc2)n1-c1ccc(Cl)cc1)N/N=C/c1ccccc1C(=O)O
24	-3%	CC(C)c1ccc(S(=O)(=O)N(C)C2(C)CCS(=O)(=O)C2)cc1 (configuration not stated)
25	-8%	Cc1nn(CC(=O)Nc2ccc(Cl)c(S(=O)(=O)N(C)C)c2)c(C)c1[N+](=O)[O-]
26	-8%	CCOC(=O)N1CCN(C(=O)c2ccc3nc(-c4ccccc4)c(-c4ccccc4)nc3c2)CC1
27	-4%	CN(C)c1ccc(CNC(=O)c2ccc3nc(CCc4ccccc4)oc3c2)cc1
28	1%	Cc1nn(Cc2ccccc2)c(Cl)c1C(=O)NCCc1ccc(Cl)cc1
29	-6%	COc1cc(C(=O)NCC(C)C)cc(OC)c1OC
30	-13%	NC(=O)c1cc([N+](=O)[O-])ccc1NCc1ccc(C(=O)O)cc1
31	-2%	O=C(CN1C(=O)c2ccccc2S1(=O)=O)N1CCN(Cc2ccc3c(c2)OCO3)CC1
32	-13%	C/C(=C\C=C\c1ccccc1)C(=O)c1c(C)cc(C)[nH]c1=O
33	2%	Cc1ccc(F)cc1NC(=O)C1CC(=O)N(CCc2ccccc2)C1 (configuration not stated)
34	0%	CCn1c(SCC(=O)NCc2ccccc2)nnc1-c1cccnc1
35	-7%	COc1ccc(C(=O)N/C(=C\c2ccc([N+](=O)[O-])cc2)C(=O)NC(CCSC)C(=O)O)cc1 (configuration not stated)
36	-8%	Cc1cc2cc(CNC(=O)c3cccc([N+](=O)[O-])c3)ccc2n1C
37	-2%	CCn1c(Cc2ccccc2)nnc1SCC(=O)c1c(N)n(C2CC2)c(=O)[nH]c1=O
38	4%	OC1C2CN3CCN(C2)CC1(Cc1ccccc1)C3 (configuration not stated)
39	0%	COc1cccc(NC(=O)CN(C)C(=O)c2c(-c3c(F)cccc3Cl)noc2C)c1
40	-7%	CC(NC(=O)c1cccc(NC(=O)c2nsc3ccccc23)c1)c1ccccc1 (configuration not stated)

# Later entries
item	KAT2A inh	Compound
41	1%	CC(=O)n1cc([C@@H]2C=C(C(=O)N3CCN(Cc4ccc5c(c4)OCO5)CC3)O[C@H](OCc3ccc(CO)cc3)C2)c2ccccc21
42	0%	O=C(CNC(=O)c1ccccc1Cl)OC1CCOC1=O (configuration not stated)
43	-1%	NC(=O)c1ccccc1NC(=O)CCCN1C(=O)CCC1=O
44	-5%	O=C(O)COc1c(-c2ccc(Cl)cc2)oc2ccccc2c1=O
45	-16%	COC(=O)[C@]1(CC(C)C)N[C@H](c2ccc(-c3ccc(F)cc3)c(OC)c2)[C@@H]2C(=O)N(C)C(=O)[C@@H]21
46	0%	Cc1cc(C)n2nc(CC(=O)NC3CCCCCCC3)nc2n1
47	-15%	Fc1ccc(-n2cc(CNCCc3ccncc3)c(-c3ccccc3Cl)n2)cc1
48	-2%	COCCn1c(-c2ccccc2)nc2ccccc21
49	-2%	COc1cc(OC)cc(C(=O)Nc2nc(CC(=O)NCc3ccccc3OC)cs2)c1
50	2%	CN(CC(=O)Nc1cccc(F)c1)C(=O)CCCc1c[nH]c2ccccc12
51	1%	CC(=O)c1c(C)oc2ccc(N(C(=O)C3CCCCC3)S(=O)(=O)c3cc([N+](=O)[O-])ccc3C)cc12
52	-25%	CCOC(=O)NNc1cc(C(F)(F)F)ccn1
53	-21%	O=C(CCc1ccccc1)Nc1cc2c3c(c1)CCC(=O)N3CCC2
54	-8%	O=C(/C=C/c1ccccc1)N1CCN(c2ccc([N+](=O)[O-])c(N3CCOCC3)c2)CC1
55	-1%	CC(=O)c1cc(Cl)ccc1OCc1cccc(S(=O)(=O)N2CCOCC2)c1
56	-1%	O=C(Oc1ccc(Cl)c2cccnc12)C12CC3CC(CC(C3)C1)C2
57	-5%	COC(=O)Nc1nc2ccc(Br)cc2s1
58	0%	O=C(C1CCCN(Cc2nc(-c3ccc(Cl)cc3)no2)C1)N1CCOCC1 (configuration not stated)
59	-7%	CC1Cc2ccccc2N1C(=O)CSCC(=O)O (configuration not stated)
60	5%&-5%	Cc1noc(C)c1S(=O)(=O)N(CC(=O)NCc1ccccc1)c1ccc(C(C)C)cc1

# The list goes on:
item	KAT2A inh	Compound
61	0%	COc1ccc(CNC(=O)COC(=O)CCc2c[nH]c3ccccc23)cc1
62	u	COc1ccc(NC(=O)CCOc2ccccc2)cc1
63	-13%	C[C@@H]1CN([C@@H](C)CO)C(=O)c2cc(NC(=O)Nc3ccc4c(c3)OCO4)ccc2O[C@H]1CN(C)S(=O)(=O)c1ccc(F)cc1
64	1%	C=CC[C@@H](CC(=O)N[C@@H](CO)Cc1ccccc1)C(=O)NCCOC(=O)[C@@H](CC=C)CC(=O)OC(C)(C)C
65	-6%	CC(C)c1ccc2nc(SCC(=O)NCC3CCCO3)c(C#N)cc2c1 (configuration not stated)
66	-1%	CCNC(=S)N(CCc1c(C)[nH]c2ccc(C)cc12)Cc1cc(OC)c(OC)c(OC)c1

# Single entries from the list:
# Under KAT2A inh, cpd 65 reads -6%
# Under KAT2A inh, cpd 63 reads -13%

# Reformatted: results already given.
no. | mol | KAT2A inh
40 | CC(NC(=O)c1cccc(NC(=O)c2nsc3ccccc23)c1)c1ccccc1 (configuration not stated) | -7%
41 | CC(=O)n1cc([C@@H]2C=C(C(=O)N3CCN(Cc4ccc5c(c4)OCO5)CC3)O[C@H](OCc3ccc(CO)cc3)C2)c2ccccc21 | 1%
42 | O=C(CNC(=O)c1ccccc1Cl)OC1CCOC1=O (configuration not stated) | 0%
43 | NC(=O)c1ccccc1NC(=O)CCCN1C(=O)CCC1=O | -1%
44 | O=C(O)COc1c(-c2ccc(Cl)cc2)oc2ccccc2c1=O | -5%
45 | COC(=O)[C@]1(CC(C)C)N[C@H](c2ccc(-c3ccc(F)cc3)c(OC)c2)[C@@H]2C(=O)N(C)C(=O)[C@@H]21 | -16%
46 | Cc1cc(C)n2nc(CC(=O)NC3CCCCCCC3)nc2n1 | 0%
47 | Fc1ccc(-n2cc(CNCCc3ccncc3)c(-c3ccccc3Cl)n2)cc1 | -15%
48 | COCCn1c(-c2ccccc2)nc2ccccc21 | -2%
49 | COc1cc(OC)cc(C(=O)Nc2nc(CC(=O)NCc3ccccc3OC)cs2)c1 | -2%
50 | CN(CC(=O)Nc1cccc(F)c1)C(=O)CCCc1c[nH]c2ccccc12 | 2%
51 | CC(=O)c1c(C)oc2ccc(N(C(=O)C3CCCCC3)S(=O)(=O)c3cc([N+](=O)[O-])ccc3C)cc12 | 1%
52 | CCOC(=O)NNc1cc(C(F)(F)F)ccn1 | -25%
53 | O=C(CCc1ccccc1)Nc1cc2c3c(c1)CCC(=O)N3CCC2 | -21%
54 | O=C(/C=C/c1ccccc1)N1CCN(c2ccc([N+](=O)[O-])c(N3CCOCC3)c2)CC1 | -8%
55 | CC(=O)c1cc(Cl)ccc1OCc1cccc(S(=O)(=O)N2CCOCC2)c1 | -1%
56 | O=C(Oc1ccc(Cl)c2cccnc12)C12CC3CC(CC(C3)C1)C2 | -1%
57 | COC(=O)Nc1nc2ccc(Br)cc2s1 | -5%
58 | O=C(C1CCCN(Cc2nc(-c3ccc(Cl)cc3)no2)C1)N1CCOCC1 (configuration not stated) | 0%
59 | CC1Cc2ccccc2N1C(=O)CSCC(=O)O (configuration not stated) | -7%
60 | Cc1noc(C)c1S(=O)(=O)N(CC(=O)NCc1ccccc1)c1ccc(C(C)C)cc1 | 5%&-5%
61 | COc1ccc(CNC(=O)COC(=O)CCc2c[nH]c3ccccc23)cc1 | 0%
62 | COc1ccc(NC(=O)CCOc2ccccc2)cc1 | u
63 | C[C@@H]1CN([C@@H](C)CO)C(=O)c2cc(NC(=O)Nc3ccc4c(c3)OCO4)ccc2O[C@H]1CN(C)S(=O)(=O)c1ccc(F)cc1 | -13%
64 | C=CC[C@@H](CC(=O)N[C@@H](CO)Cc1ccccc1)C(=O)NCCOC(=O)[C@@H](CC=C)CC(=O)OC(C)(C)C | 1%
65 | CC(C)c1ccc2nc(SCC(=O)NCC3CCCO3)c(C#N)cc2c1 (configuration not stated) | -6%
66 | CCNC(=S)N(CCc1c(C)[nH]c2ccc(C)cc12)Cc1cc(OC)c(OC)c(OC)c1 | -1%

# Bioassay records as filed in PubChem.
